Bioassay records (PubChem BioAssay)
Sa growth inh: inhibitors of Staphylococcus aureus growth at 42 °C; S. aureus RN4220 growth, OD600, 20 h; stronger effect = lower value; 170,000 tested, 0.53% active; relative growth, % (test concentration not listed);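 active = growth at 42 °C up to 50% and 20 or more points under that at 30 °C, or under 10% at both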;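 note: 300 nL library stock went into each well; scaled to the means of positive and negative controls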
HCMV UL50-53 inh: inhibitors of HCMV UL50-UL53 nuclear egress complex interaction; HTRF UL50-UL53 interaction, normalized percent inhibition; AID 1918969; inhibition, % (no concentration beside the values); 190,000 tested, 0.15% active;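 active = both replicates at 50% or more, plus weaker picks with an unusually low signal ratio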;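 note: stock transfer was 100 nL into about 20 µL; 0% = negative control wells and 100% = wells with untagged competitor protein; inactives centre near -12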
GIV-Gai inh: GIV-Galpha-i interaction inhibition. P08753. Galpha-i3/FITC-GIV peptide fluorescence polarization, 90 min; stronger effect = lower value; scaled: aluminum fluoride 0%, vehicle 100%. percent of control (FP), % (no concentration beside the values). 210,000 tested, 0.42% active. AID 1224905;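 active = replicate mean at 85% of control or lower, very high polarization wells dropped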;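 note: wells of about 15 µL received 100 nL stock; the first replicate is given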
Target sequence (P08753 whole entry, looked up): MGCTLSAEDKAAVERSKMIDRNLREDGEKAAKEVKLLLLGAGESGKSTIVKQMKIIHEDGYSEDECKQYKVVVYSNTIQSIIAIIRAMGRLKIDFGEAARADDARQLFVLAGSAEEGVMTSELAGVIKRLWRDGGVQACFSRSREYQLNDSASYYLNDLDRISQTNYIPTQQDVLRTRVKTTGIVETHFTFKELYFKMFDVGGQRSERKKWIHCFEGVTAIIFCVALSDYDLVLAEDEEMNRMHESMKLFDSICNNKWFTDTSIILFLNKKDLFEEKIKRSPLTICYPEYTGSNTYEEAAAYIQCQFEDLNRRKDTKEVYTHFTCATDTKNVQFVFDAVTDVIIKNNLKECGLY
Sa growth inh second temp: also measured in Sa growth inh; calls as there; relative growth, %; measured here: growth at 30 °C;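 optical density after 20 h as mean of two plates; 100% = untreated growth and lower means inhibition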
* hit, by the source's call; · = no result given.

#1 Cc1nc2ccc(S(=O)(=O)NC(CC(C)C)C(=O)NCc3ccc(Cl)cc3)cc2s1 (centres undefined)
#2 O=C(OCc1cc(=O)n2ccsc2n1)c1cc(-c2cccs2)nn1-c1ccccc1
#3 CN(C(=O)c1cc2ccc3cccnc3c2[nH]1)c1ccccc1
#4 Cc1nnc(SC(C)C(=O)C23CC4CC(CC(C4)C2)C3)n1C (centres undefined)
#5 O=C(Nc1cccc(Cl)c1)c1ccc2nc(CCc3ccccc3)oc2c1
#6 CC1CCCC(C)N1C(=O)COC(=O)c1ccc2ccccc2n1 (centres undefined)
#7 CC1=C(C(N)=O)C(c2ccc(C(=O)O)cc2)n2ncnc2N1 (centres undefined)
#8 O=C(O)COc1cccc(C(F)(F)F)c1

screen / no. | 1 | 2 | 3 | 4 | 5 | 6 | 7 | 8
Sa growth inh second temp | 86 | 95 | 84 | 93 | 90 | 93 | · | 93
HCMV UL50-53 inh | -34 | -29 | -28 | -10 | · | -21 | -19 | -2
Sa growth inh | 87 | 84 | 100 | 86 | 84 | 67 | · | 69
GIV-Gai inh | 101 | · | 97 | · | 99 | · | 103 | ·

Single records, as listed above.
Shown for `CC1CCCC(C)N1C(=O)COC(=O)c1ccc2ccccc2n1` (centres undefined) → Sa growth inh second temp = 93; HCMV UL50-53 inh = -21; Sa growth inh = 67; GIV-Gai inh = ·
Shown for `Cc1nc2ccc(S(=O)(=O)NC(CC(C)C)C(=O)NCc3ccc(Cl)cc3)cc2s1` (centres undefined) → Sa growth inh second temp = 86; HCMV UL50-53 inh = -34; Sa growth inh = 87; GIV-Gai inh = 101

Remaining list, next part:
#9 Cc1cc2ncn(S(=O)(=O)c3ccc(S(=O)(=O)NCC4CCCO4)cc3)c2cc1C (centres undefined)
#10 CCCNC(=O)C1=Cc2ccc(C)cc2OC=C1
#11 COc1ccc(OC)c(CNn2c(-c3ccc(Br)cc3)nc3ccccc3c2=O)c1
#12 O=C(/C(=N\O)n1cncn1)c1ccccc1Cl
#13 CSc1ccc(CNC(=O)c2c(C)noc2C)s1
#14 Cc1cc(C)c2c(n1)SCC(=O)N2CCCC(=O)NC(C)C
#15 Cc1ccc(S(=O)(=O)NC(=O)OCC2CN(Cc3ccccc3)CCO2)cc1 (centres undefined)
#16 COc1ccc(C2C3=C(CC(c4ccc(OC)c(OC)c4)CC3=O)Nc3onc(C)c32)cc1 (centres undefined)

screen / no. | 9 | 10 | 11 | 12 | 13 | 14 | 15 | 16
Sa growth inh second temp | 92 | · | · | 88 | 83 | 92 | 87 | ·
HCMV UL50-53 inh | -14 | -72 | 8 | · | 9 | -7 | 19 | -4
Sa growth inh | 84 | · | · | 106 | 95 | 97 | 90 | ·
GIV-Gai inh | 101 | 100 | 108 | 96 | 110 | 100 | 101 | 106

#17 Cc1cccc(-n2ncc3c(N(C)Cc4ccccc4)ncnc32)c1
#18 COc1cccc(-c2cc(C(F)(F)F)nc(N3CCCCC3)n2)c1
#19 O=CN1CCN(C(=S)Nc2ccc(Cl)cc2Cl)CC1
#20 CCOCCCn1c(=N)c(C(=O)NCc2cccnc2)cc2c(=O)n3ccccc3nc21
#21 Cn1c(=O)c(C(=O)NCCN2CCNCC2)c(O)c2ccccc21
#22 CN(C)CCNC(=O)c1ccc2nc(Cc3ccccc3)oc2c1
#23 CC(C)CCNC(=O)C1(C)CCC(=O)N1Cc1cccs1 (centres undefined)
#24 CC1=CCC2CC1C(c1ccc(N(C)C)cc1)OC2(C)C (centres undefined)

screen / no. | 17 | 18 | 19 | 20 | 21 | 22 | 23 | 24
Sa growth inh second temp | 96 | 85 | 95 | 92 | 100 | 91 | 95 | 104
HCMV UL50-53 inh | · | -10 | 7 | -140 | -31 | · | -11 | -10
Sa growth inh | 117 | 74 | 82 | 100 | 96 | 103 | 99 | 108
GIV-Gai inh | 104 | 109 | · | 106 | 98 | 100 | 106 | 101

#25 COCc1nc2ccccc2n1CCCCOc1cccc(C)c1
#26 CCc1ccc(OCCCC(N)=O)cc1
#27 COc1ccc(COC(=O)N/N=C/c2ccco2)cc1
#28 O=C(C1CCCN(S(=O)(=O)c2cccc3nonc23)C1)N1CCc2ccccc2C1 (centres undefined)
#29 C=CCn1c(SCC(=O)O)nnc1-c1ccc(OC)c(OC)c1
#30 CSc1ccc(Cl)c(C(=O)N2CCc3ccccc32)c1
#31 Cc1ccc(-n2ncc3c(Nc4ccc(Oc5ccccc5)cc4)ncnc32)c(C)c1
#32 Cc1ccc(-c2nn3c(=O)cc(CNC(=O)Nc4ccc(C)c(C)c4)nc3s2)cc1

screen / no. | 25 | 26 | 27 | 28 | 29 | 30 | 31 | 32
Sa growth inh second temp | · | 99 | 82 | 97 | 100 | 103 | 74 | ·
HCMV UL50-53 inh | -27 | -4 | -14 | -42 | 0 | 0 | · | -38
Sa growth inh | · | 104 | 94 | 103 | 103 | 81 | 93 | ·
GIV-Gai inh | 105 | 105 | 100 | 110 | 110 | · | 103 | 100

#33 O=C(CSc1ncccn1)N1CCN(S(=O)(=O)c2ccc(Cl)cc2)CC1
#34 CC(C)C1=CC23CCC4C(C)(C(=O)O)CCCC4(C)C2CC1C1C(=O)N(c2ccc(S(N)(=O)=O)cc2)C(=O)C13 (centres undefined)
#35 Cc1ccc(Oc2c(C(F)(F)F)oc3cc(OCC(=O)NC4CCCCC4)ccc3c2=O)cc1
#36 Cc1c(C(=O)N2CCCC2)oc2c1-c1nn(CC(=O)O)cc1CC2
#37 CCOc1cc2sc(N3CCC(C(=O)Nc4ccc(C)cc4)CC3)nc2cc1Br
#38 O=C(CNS(=O)(=O)c1ccccc1)NCc1ccccn1
#39 CC1(C)CC(O)(CNCc2ccc3c(c2)OCO3)CCO1 (centres undefined)
#40 Cc1cc2nc(N3CCN(c4ccccc4)CC3)c3ccccc3n2n1

screen / no. | 33 | 34 | 35 | 36 | 37 | 38 | 39 | 40
Sa growth inh second temp | 89 | · | 88 | 86 | 95 | 93 | 99 | 98
HCMV UL50-53 inh | -9 | -14 | -33 | -10 | -27 | 1 | -1 | -5
Sa growth inh | 87 | · | 102 | 85 | 102 | 109 | 88 | 90
GIV-Gai inh | · | 103 | 106 | 104 | 99 | 109 | 100 | ·

#41 O=C(CC1Sc2ccccc2NC1=O)Nc1cccc(-c2nnc3n2CCCCC3)c1 (centres undefined)
#42 CCCCN1C(=O)NC2NC(=O)NC21 (centres undefined)
#43 O=C(OCC(=O)N1CCCC1)c1ccc2ncsc2c1
#44 Cc1ccc(-n2cnc3scc(-c4cccs4)c3c2=O)cc1
#45 O=C(CCc1ccccc1)OCCN1CCCC1=O
#46 COc1ccc2c(c1)c1nc(SC)n(CCO)c(=O)c1n2C
#47 CCc1ccc(C(=O)c2c(N)c(C(=O)Nc3cccc(F)c3)c3ccccn23)cc1
#48 CC(=O)Nc1cc(C)nn1-c1nc2ccccc2n1C

screen / no. | 41 | 42 | 43 | 44 | 45 | 46 | 47 | 48
Sa growth inh second temp | 83 | 63 | 96 | 96 | 102 | 89 | · | 82
HCMV UL50-53 inh | -16 | -62 | 2 | -3 | 14 | -14 | 1 | -14
Sa growth inh | 91 | 65 | 89 | 93 | 103 | 109 | · | 105
GIV-Gai inh | · | 100 | · | · | · | 103 | 101 | ·

#49 COc1cc(OC)cc(-c2nc3ccccc3c(=O)n2NC(=O)c2ccc(OC)c([N+](=O)[O-])c2)c1
#50 CC(=O)Nc1ccc(NS(=O)(=O)c2cc(Br)cc3c2N(C(=O)C2CC2)CC3)cc1
#51 O=C(NCCC1=CCCCC1)c1cccn1-c1cccnc1
#52 C=CCn1cnnc1SC(C)C(=O)N(CC)c1cccc2ccccc12 (centres undefined)
#53 CCc1ccc2c(CN3CCN(S(=O)(=O)c4ccc5c(c4)OCCO5)CC3)cc(=O)oc2c1
#54 CCc1nnc(NS(=O)(=O)c2ccc(OC(F)(F)F)cc2)s1
#55 C[C@H](NC(=O)OC(C)(C)C)c1nnc(SCc2ccc(Cl)cc2Cl)o1
#56 Cc1ccccc1NC(NC(=O)c1ccco1)C(=O)c1ccccc1 (centres undefined)

screen / no. | 49 | 50 | 51 | 52 | 53 | 54 | 55 | 56
Sa growth inh second temp | · | 87 | · | 89 | 91 | 58 | 91 | 84
HCMV UL50-53 inh | -20 | -10 | -32 | -16 | -3 | 4 | -11 | ·
Sa growth inh | · | 109 | · | 96 | 103 | 97 | 117 | 122
GIV-Gai inh | 102 | 98 | 109 | · | · | 110 | 95 | 110

#57 CC(C)(C)c1ccc(CN2C(=O)N(Cc3ccccc3)S(=O)(=O)c3ccccc32)cc1
#58 CCc1c(C)sc2c1CCN(C(=O)Nc1ccccc1C(=O)OC)C2c1ccc(F)cc1 (centres undefined)
#59 O=C(CSc1nc2nc[nH]c2c(=O)[nH]1)NCc1ccccc1
#60 CC(OC(=O)C1COc2ccccc2O1)C(=O)N1CCc2ccccc21 (centres undefined)
#61 Cc1cc2ccccc2c(=O)n1CC(=O)Nc1ccc(C(C)C)cc1
#62 Cc1cccc(NC(=O)CN2N=C(c3ccccc3)CCC2=O)c1C
#63 Cc1ccc(Cn2nnc3c(=O)[nH]c(C4CCN(C(=O)Cc5ccccc5F)CC4)nc32)cc1
#64 NNC(=O)CNC(=O)c1ccc2c(c1)OCO2

screen / no. | 57 | 58 | 59 | 60 | 61 | 62 | 63 | 64
Sa growth inh second temp | · | 83 | · | 90 | 86 | 89 | 34 | 105
HCMV UL50-53 inh | -20 | · | -4 | -3 | · | -11 | -13 | 16
Sa growth inh | · | 80 | · | 102 | 92 | 99 | 53 | 83
GIV-Gai inh | 105 | 100 | 105 | · | 99 | 105 | 104 | 97

5 entries from above, as tab-separated lines:
nr	structure	Sa growth inh second temp	HCMV UL50-53 inh	Sa growth inh	GIV-Gai inh
28	O=C(C1CCCN(S(=O)(=O)c2cccc3nonc23)C1)N1CCc2ccccc2C1 (centres undefined)	97	-42	103	110
43	O=C(OCC(=O)N1CCCC1)c1ccc2ncsc2c1	96	2	89	·
2	O=C(OCc1cc(=O)n2ccsc2n1)c1cc(-c2cccs2)nn1-c1ccccc1	95	-29	84	·
63	Cc1ccc(Cn2nnc3c(=O)[nH]c(C4CCN(C(=O)Cc5ccccc5F)CC4)nc32)cc1	34	-13	53	104
44	Cc1ccc(-n2cnc3scc(-c4cccs4)c3c2=O)cc1	96	-3	93	·

Next structures
#65 COc1ccccc1NC(=O)Cn1c(CN2CCCCC2)nc2ccccc2c1=O
#66 Cc1ccc(COc2cc(C(=O)NCc3ccccn3)c3ccccc3n2)cc1
#67 Cc1ccc(C)c(OC2=NS(=O)(=O)c3ccccc32)c1
#68 CC(C)CCNC(=O)c1cc2sccc2n1Cc1ccc(F)cc1
#69 O=C(NCc1ccc(F)cc1)c1ccc(Cn2c(SCc3ccc(F)cc3)nc3cccnc32)cc1
#70 O=c1[nH]cnc2ccc(Br)cc12
#71 Cc1cc(=O)oc(C)c1C(=O)NC1CCCc2ccccc21 (centres undefined)
#72 CC(=O)c1ccc(NC(=O)CSc2nccn2C2CCCC2)cc1

screen / no. | 65 | 66 | 67 | 68 | 69 | 70 | 71 | 72
Sa growth inh second temp | 88 | · | 90 | 90 | 83 | 100 | 95 | 86
HCMV UL50-53 inh | -30 | -12 | -5 | -2 | -31 | -14 | · | ·
Sa growth inh | 95 | · | 97 | 108 | 99 | 127 | 100 | 121
GIV-Gai inh | 100 | 105 | 113 | 104 | 98 | 101 | 105 | 102

#73 Cc1ccc(C(=O)c2coc3ccc(O)cc23)o1
#74 COc1ccc(OC)c(/C=C2\SC(=N)N(c3ccc(F)cc3)C2=O)c1
#75 Cc1occc1-c1nnc(SCC(=O)N(CCc2ccccc2)Cc2ccccc2)n1N
#76 COCCn1cnc2c1c(=O)n(CC(O)c1ccccc1)c(=O)n2CC(C)C (centres undefined)
#77 COc1cccc(NC(=O)c2sc3nc(C)c(C(=O)Nc4ccc(C)cc4C)c(-c4sccc4C)c3c2N)c1
#78 CCCCn1c(N)c(N2CCOCC2)c(=O)n(CC(=O)N2C(C)CCCC2C)c1=O (centres undefined)
#79 COc1ccc2[nH]c3c(c2c1)CCN(C(=O)C1CC1)C3c1ccc(F)cc1 (centres undefined)
#80 N#CSCCCOc1ccc2ccccc2c1

screen / no. | 73 | 74 | 75 | 76 | 77 | 78 | 79 | 80
Sa growth inh second temp | 91 | · | 85 | 89 | 86 | 94 | · | 99
HCMV UL50-53 inh | -1 | -26 | -28 | -23 | -9 | -11 | -33 | -13
Sa growth inh | 96 | · | 101 | 113 | 100 | 89 | · | 110
GIV-Gai inh | · | 112 | · | · | 107 | · | 99 | 99

#81 COc1ccc2[nH]c3c(c2c1)CCNC3c1ccc(F)cc1 (centres undefined)
#82 Cc1[nH]n(C)c(=O)c1N=Nc1c(Cl)cc(C(F)(F)F)cc1Cl
#83 COc1ccc(Br)cc1COC(=O)C1c2ccccc2Oc2ccccc21
#84 CCC(OC(=O)c1cc2sccc2n1C(C)C)C(=O)NCc1ccc(OC)cc1 (centres undefined)
#85 COC(=O)c1cccc(NC(=O)c2ccccc2)c1
#86 Cc1ccc(C(=O)Cn2nc3n(CC(C)C)c(=O)c4ccc(C(=O)NC5CCCC5)cc4n3c2=O)c(C)c1
#87 O=C(COC(=O)C1CC2C=CC1C2)Nc1ccccc1 (centres undefined)

screen / no. | 81 | 82 | 83 | 84 | 85 | 86 | 87
Sa growth inh second temp | · | 82 | 89 | 78 | 82 | · | 93
HCMV UL50-53 inh | -24 | -33 | -24 | -4 | -28 | -13 | 3
Sa growth inh | · | 97 | 94 | 97 | 93 | · | 97
GIV-Gai inh | 106 | 104 | 108 | 99 | 104 | 102 | ·
